# High-throughput results as filed in PubChem.
# AmpC inh no det = Promiscuous and Specific Inhibitors of AmpC Beta-Lactamase (assay without detergent) | P00811 | AmpC nitrocefin hydrolysis, absorbance 480 nm, no detergent; potencies from a single point are estimates | Potency, µM (top dose mostly 28.7 µM), without a hit: at the top dose activity change, negative = inhibition | actives 1.8% (n = 71,000); active = falling curve, for most hits resting on a single point; inconclusive = weak or doubtful change; inactive = flat or rising curve; also: % of control where 0% means no effect; about half of the hits show no inhibition at the top dose; a quarter of the inactives give rising signals
# Target sequence (P00811 whole entry, looked up): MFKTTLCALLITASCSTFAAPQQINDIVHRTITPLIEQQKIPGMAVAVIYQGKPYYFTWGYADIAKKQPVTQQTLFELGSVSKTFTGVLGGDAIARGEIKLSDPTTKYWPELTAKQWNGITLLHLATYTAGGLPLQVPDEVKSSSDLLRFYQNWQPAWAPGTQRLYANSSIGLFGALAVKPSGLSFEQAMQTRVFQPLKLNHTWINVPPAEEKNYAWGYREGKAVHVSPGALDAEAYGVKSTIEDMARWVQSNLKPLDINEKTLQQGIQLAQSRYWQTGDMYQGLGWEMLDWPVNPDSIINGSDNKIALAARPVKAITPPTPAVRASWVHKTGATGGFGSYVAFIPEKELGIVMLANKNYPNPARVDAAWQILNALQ
#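 Enzyme, pH 7.0 phosphate. Compound titrations were pre-incubated with AmpC for 15 min at room temperature before nitrocefin (stock 800 uM) addition; product formation was recorded at 480 nm every 20 s for 4 min.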
# * = called active by the depositor; ? = inconclusive; & = joins results of further samples; [ ] = another dose, or the depositor's remark. Potency is read from the fitted curve at half-maximal effect.
# The first 2 compounds (preview)
SMILES,AmpC inh no det
COc1cc(C2Nc3ccc4ncccc4c3C3=C2C(=O)CCC3)cc(OC)c1O (centres undefined),16.2%
CC1(C)Cc2c(c(=S)nc(-c3ccccc3)n2CCN2CCOCC2)CO1,0.8%

# Main list, from the first entry:
SMILES,AmpC inh no det
COc1cc(C2Nc3ccc4ncccc4c3C3=C2C(=O)CCC3)cc(OC)c1O (centres undefined),16.2%
CC1(C)Cc2c(c(=S)nc(-c3ccccc3)n2CCN2CCOCC2)CO1,0.8%
Cn1c(=O)c2cc(S(=O)(=O)NCCC(=O)NCCC3=CCCCC3)ccc2n(C)c1=O,39.9%
CC(=O)Nc1ccc(NC(=O)CCC(=O)NCCO)cc1,-0.4%
O=C(Nc1ccc(N2CCOCC2)cc1N1CCOCC1)c1ccco1,23.4%
CCCn1c(C)nc2c(NCCN(C(C)C)C(C)C)nc(C)nc21,-2.2%
O=C(O)C1CC=C(Cl)CC1C(=O)NCc1ccccc1 (centres undefined),5.0%
O=C(Nc1nc2ccc(Cl)cc2s1)c1ccc(Br)o1,-23.2%
O=C(O)c1cc(Cl)ccc1NC(=O)C1CCCO1 (centres undefined),-0.4%
COc1ccccc1-n1c(C)nnc1SCC(N)=O,76.3%
COCCNC(=O)C(c1ccc(C)o1)N(C(=O)c1snc(C(N)=O)c1N)c1ccc(C)c(C)c1 (centres undefined),121.3%
O=c1[nH]cnc2nc(-c3ccccc3)c(-c3ccccc3)nc12,-2.7%
O=C(Nc1ccc(S(=O)(=O)N2CCCCCC2)cc1)c1ccc(Br)o1,-11.4%
O=C(NC1CCCCC1)N(Cc1nc2ccccc2c(=O)[nH]1)C1CCCCC1,15.2%
CCCCCOC(=O)CSc1nnc(-c2cc(OC)c(OC)c(OC)c2)o1,108.0%
O=C(CCCCn1c(=O)c2ccccc2n(Cc2ccc(F)cc2Cl)c1=O)NCc1ccco1,53.7%
O=C1CC(c2ccc(F)cc2)Cc2nc(N3CCN(c4ccccc4)CC3)ncc21 (centres undefined),-3.4%
COCC(C)NC(=O)c1cc(-c2ccc(O)cc2)on1 (centres undefined),-15.4%
FC(F)(F)c1ccccc1-n1ccnc1,12.2%&-1.4%
NC(=O)c1oc2ccc(Cl)cc2c1NC(=O)CN1CCOCC1,37.1%
COc1ccc(S(=O)(=O)N(C)CC(=O)NC2CC2)cc1,8.1%
CCC(C(=O)Nc1cnccn1)c1ccccc1 (centres undefined),10.8%
COc1ccc(Oc2ncc3nc(-c4cn(C)c5ccccc45)c(=O)n(CCC#N)c3n2)cc1,10.6%
Cc1cc(C)cc(OCc2nnc(SCC(=O)OC3CCCCC3)o2)c1,18.8%
O=C(NCc1ccc2c(c1)OCO2)c1ccc(-c2ccc(Cl)cc2)o1,-12.1%
CC(=O)Nc1cc2c(cc1C(=O)C(C)C)OCCO2,-10.5%
CC(C)Nc1nc(SCC(=O)Nc2ccccc2)nc(N2CCOCC2)n1,63.8%
CCn1c(COc2ccccc2)nnc1SCc1ccc(C#N)cc1,33.3%
O=c1c(-c2ccccc2)nc2cncnc2n1Cc1ccccc1Cl,29.9%
CC(C)(C)OC(=O)N1CC(O)CC1C(=O)OCC(=O)c1ccc(Cl)cc1 (centres undefined),86.1%
O=C(c1cc(-c2cccnc2)nc2ccc(Br)cc12)N1CCC2(CC1)OCCO2,99.4%
CSc1ccc(/C=N/n2nnnc2N)cc1,-18.3%
Fc1ccc(C(c2nnnn2Cc2ccccc2)N2CCSCC2)cc1 (centres undefined),25.2%
O=C(CSc1ccc2nnc(-c3cccnc3)n2n1)NCc1ccco1,4.7%
Cn1c(O)c(C=NCCOc2ccc(Cl)cc2)c(=O)n(C)c1=O,66.1%
CCOC(=O)c1ccc(N2C(=O)C3CC=C(C)CC3C2=O)cc1 (centres undefined),17.6%
CCOC(=O)N1CCN(S(=O)(=O)c2cc3c(cc2C)NC(=O)CO3)CC1,-4.4%
CC(=O)c1ccc(Nc2cc(C)nc3nc(C)nn23)cc1,0.4%
CCSc1nncn1/N=C/c1ccc(OC)c(OC)c1,26.2%
CC(C)C(c1nnnn1CC1CCCO1)N1CCN(C2CCCC2)CC1 (centres undefined),-17.3%
NC(=O)N1CC(O)CC1C(=O)Nc1ccc(Cl)c(Cl)c1 (centres undefined),-3.1%
O=C(CCN1C(=O)c2ccccc2S1(=O)=O)Nc1ccc2c(c1)OCCO2,-6.2%
CN(C)c1ccc(-c2cncnc2NCCN2CCOCC2)cc1,48.2%
CC(=O)Nc1cccc(OCC(=O)Nc2ccccc2)c1,0.6%
Cc1ccc(/C=c2\sc3nc(-c4cccnc4)nn3c2=O)cc1,22.0%
CCN1CCN(CCCNC(=O)c2cc3cc4ccc(OC)cc4nc3o2)CC1,33.6%
CC1CCCN(c2oc(-c3cccc4ccccc34)nc2C#N)C1 (centres undefined),-9.8%
O=C(Oc1ccccc1C(=O)N1CCOCC1)c1cccc(Br)c1,101.9%
CN(C)c1ccc(-c2noc(-c3ccccc3O)n2)cc1,-2.2%
Cc1ccc(S(=O)(=O)NCc2csc(C)n2)c(C)c1,18.0%
CC(Sc1n[nH]c(=O)[nH]c1=O)C(=O)OCc1ccccc1 (centres undefined),-3.7%
COc1ccc(-n2nnnc2-c2cccc(OC)c2)cc1,6.9%
O=C(CSCc1ccccc1)N1CCN(C(=O)c2ccco2)CC1,25.0%
O=[n+]1c2c(n([O-])c3c1CCCC3)CCCC2,-3.6%
CSc1cccc(NS(=O)(=O)c2ccc3c(c2)oc(=O)n3C)c1,-0.5%
Cc1cc(C)cc(NCC(=O)Nc2c(C)cccc2C)c1,33.5%
C=CCn1c(N)c(C(=O)OC(C)CC)c2nc3ccccc3nc21 (centres undefined),16.4%
COc1ccc(C2CC(=O)C3=C(C2)Nc2ccccc2N(C(=O)C2CC2)C3c2cccnc2)cc1OC (centres undefined),94.9%
O=C(c1cccc(F)c1)N1CCC2(CCCN(c3ccc(-c4ccccc4)cc3)C2)CC1,46.5%
CC(=O)N1[C@H](Cc2ccccc2)C=C[C@]1(C)C(=O)O,-3.8%
# Next structures:
SMILES,AmpC inh no det
CC(C)(C)Nc1ncnc2c1cnn2-c1ccccc1,12.9%
CCOc1ccc(-n2c(Cc3cc(=O)[nH]c(=O)[nH]3)nnc2SCC(=O)OC)cc1,3.98µM*[single pt active]
C=CCOC(=O)c1sc(N2C(=O)c3oc4ccccc4c(=O)c3C2c2ccco2)nc1C (centres undefined),-6.9%
CC(C)Cc1cc(C(=O)Nc2c(F)cc(F)cc2Br)no1,3.98µM*[single pt active]
COc1cc(-c2nn3c(-c4ccccc4)nnc3s2)cc(OC)c1OC,60.5%
Cc1ccc(NS(=O)(=O)c2cc(C(=O)O)ccc2Cl)c(C)c1,-2.7%
CC(C)OC(=O)CSc1nnc(-c2cccnc2)n1N,-14.3%
CC(C)OC(=O)C1C2C=CC3(CN(C(C)c4ccc(Br)cc4)C(=O)C13)O2 (centres undefined),96.6%
c1ccc(-c2nn3c(Cn4cnc5ccccc54)nnc3s2)cc1,25.3%
CCCCCCn1c(CN2CCCCC2C)nc2c1c(=O)n(C)c(=O)n2C (centres undefined),78.8%
CCOc1ccc(S(=O)(=O)Nc2cccc(Cl)c2)cc1,?
CS(=O)(=O)N1CCCC(C(=O)NCCc2ccccc2)C1 (centres undefined),10.4%
COc1cc(CNC(=O)OCC(C)C)cc(OC)c1OC,12.8%
CN1CCN(c2ncc3nc(-c4ccccc4)c(=O)n(Cc4cccs4)c3n2)CC1,116.2%
O=c1oc2c(CN3CCCCCC3)c(O)ccc2cc1-c1nc2ccccc2[nH]1,90.4%
Cc1cc(C)n(-c2nc3ccccc3c(=O)n2OCCOc2ccccc2)n1,57.4%
CNc1ncnc2c1ncn2[C@H]1C[C@@H](OP(=O)(O)O)[C@H](COP(=O)(O)O)O1,-1.4%
CCNC(=O)COC(=O)c1ccc(S(=O)(=O)N2CCCCCC2)cc1,14.5%
CCn1c(SCC(=O)Nc2ccccc2-c2ccccc2)nnc1-c1ccoc1C,59.6%
COCc1c(C(N)=O)nnn1-c1nonc1N,-11.6%
Cc1ccc(Oc2nsnc2N2CCOCC2)cc1,9.8%
COc1ccc2c(c1)CCc1c(C(=O)N3CCCC3)noc1-2,64.3%
CN(C)S(=O)(=O)N1CCN(C(=O)N(c2ccccc2)c2ccccc2)CC1,76.3%
COC(=O)c1cccc(NC(=O)Cn2nnc3ccccc32)c1,-5.5%
CCc1nnc(NC(=O)C(C)Sc2ccccc2)s1 (centres undefined),-1.8%
O=C(O)CCCC(=O)Nc1nc(-c2ccc(F)cc2)cs1,-22.1%
C=CCn1c(SCc2cc(=O)n3ccsc3n2)nnc1C1CCCCC1,6.3%
Cc1cc(-n2c(SCCC#N)nnc2-c2cccnc2)ccc1Cl,33.3%
Cc1ccc(S(=O)(=O)C(C#N)c2nc3ccccc3nc2N2CCC(C)CC2)cc1 (centres undefined),-16.7%
CCOc1cc(S(=O)(=O)NCC2OCCc3ccccc32)c(OCC)cc1-n1cnnn1 (centres undefined),91.4%

# Laid out differently: four of the compounds above
Cc1ccc(/C=c2\sc3nc(-c4cccnc4)nn3c2=O)cc1
  AmpC inh no det: 22.0%

CCN1CCN(CCCNC(=O)c2cc3cc4ccc(OC)cc4nc3o2)CC1
  AmpC inh no det: 33.6%

CC1CCCN(c2oc(-c3cccc4ccccc34)nc2C#N)C1 (centres undefined)
  AmpC inh no det: -9.8%

O=C(Oc1ccccc1C(=O)N1CCOCC1)c1cccc(Br)c1
  AmpC inh no det: 101.9%

# (continued)
SMILES,AmpC inh no det
O=C(Nc1ccc2nc(-c3cccs3)[nH]c2c1)c1ccco1,-4.8%
CC(C)(C)c1cc(C(=O)O)c(CN2CCCCC2)o1,3.7%
COc1cccc(-c2nc(CS(=O)(=O)CC(=O)N3CCN(C4CCCCC4)CC3)c(C)o2)c1,121.5%
O=C(Nc1ccc2c(c1)CCC2)C1CCN(c2c3c(nc4ncnn24)CCC3)CC1,143.5%
Cc1cccc([N+](=O)[O-])c1C(=O)O,3.8%
O=C(O)C1CSC2(CCN(Cc3ccccc3)CC2)N1 (centres undefined),-10.9%
COCCN1Cc2cccc(C(=O)N3CCN(c4cc(C)ccc4C)CC3)c2C1=O,140.1%
CC(C)(C)N(Cc1ccccc1)C(=O)CSc1nnc(CNc2ccc(F)cc2)o1,28.7%
COC(=O)c1sc(NC(=O)Cc2cccs2)nc1C,-7.9%
CCOC(=O)N1CCC(N2C(=O)c3ccc(C(=O)NC4CCCCCC4)cc3C2=O)CC1,-5.2%
S=C(c1ccc(Cl)cc1)N1CCOCC1,1.3%
Cc1ccc(-n2c(Cc3cccs3)nnc2SCC(=O)OC(C)C)cc1,68.7%
Clc1ccc2c(N3CCC(CCC4CCN(c5ncnc6cc(Cl)ccc56)CC4)CC3)ncnc2c1,-0.4%[5.75 µM]
O=S(=O)(Nc1cccnc1)c1ccc(C2CCCCC2)cc1,-12.5%
CCC(C)n1nccc1NC(=O)C(C)OC(=O)c1cc2ccccc2[nH]1 (centres undefined),23.5%
OC(COc1ccc2ccccc2c1Cl)CN1CCOCC1 (centres undefined),104.6%
CCCCn1c(NC(=O)c2ccccc2)c(C#N)c2nc3ccccc3nc21,22.7%
O=C(Nc1ccc(S(=O)(=O)N2CCc3ccccc3C2)cc1)C1CCCO1 (centres undefined),59.6%
O=C(C1CCC(C(=O)N2CCc3ccccc32)CC1)N1CCc2ccccc21 (centres undefined),9.1%
CCCCC(=O)NC1(C(F)(F)F)C(=O)Nc2c1c(=O)[nH]c(=O)n2Cc1ccco1 (centres undefined),-5.1%
Fc1ccc2c(c1)[C@H]1OCC[C@H]1[C@@H](c1ccco1)N2,-5.6%
COC(=O)c1cc2sccc2n1Cc1nc(-c2ccc(OC)cc2)oc1C,14.2%
CCc1nc(C)cc(N)c1OCc1ccccc1,-8.0%
O=C(Nc1nc(-c2cccnc2)cs1)c1ccc(S(=O)(=O)N2CCOCC2)cc1,26.5%
CNC(=O)CN1C(=O)c2ccccc2S1(=O)=O,3.98µM*[single pt active]
CCOC(=O)c1[nH]c(C)c(C(=O)N2CCC3(CC2)OCCO3)c1C,-6.2%
CCOC(=O)c1ccc(CNC(=O)C2CCCCC2C(=O)OCC(F)(F)F)o1 (centres undefined),23.6%
Cc1occc1C(=O)Nc1c(F)cc(F)cc1Br,-4.2%
CNC/C(Cl)=N/S(=O)(=O)c1ccc(C)cc1,1.9%[5.75 µM]
O=C(CSc1oc(-c2ccc(F)cc2)nc1S(=O)(=O)c1ccccc1)NCC1CCCO1 (centres undefined),52.7%

# An excerpt from above in order of length of the SMILES, smallest number first:
SMILES,AmpC inh no det
COc1ccccc1-n1c(C)nnc1SCC(N)=O,76.3%
CCc1nnc(NC(=O)C(C)Sc2ccccc2)s1 (centres undefined),-1.8%
CC(C)OC(=O)CSc1nnc(-c2cccnc2)n1N,-14.3%
COc1ccc(S(=O)(=O)N(C)CC(=O)NC2CC2)cc1,8.1%
Cc1cc(C)cc(OCc2nnc(SCC(=O)OC3CCCCC3)o2)c1,18.8%

# Next part.
SMILES,AmpC inh no det
COC(=O)c1sc(NC(=O)c2ccco2)nc1C,-14.1%
Nc1c(Cl)cc([N+](=O)[O-])cc1Cl,-19.4%
O=c1c2ccccc2n2cnnc2n1-c1ccccc1,-3.0%
Cc1ccc(NC(=[OH+])c2cc3ccccc3cc2O)c(C)c1.Cc1ccc(NC(=[OH+])c2cc3ccccc3cc2O)c(C)c1.[Ni],?
COc1cccc(C2=CC(c3cc(OC)ccc3OC)n3nnnc3N2)c1 (centres undefined),11.3%
CCc1c(C)nc2ncnn2c1N1CCCC(C(=O)NCCc2ccccc2)C1 (centres undefined),20.7%
Cc1ccccc1NC(=O)c1ccccc1,-5.3%

# Not all compounds are listed; count on the stated rates, not on these rows.
